VCAM-1 down = inhibitors of TNFa-induced VCAM-1 surface display, cell-based, plate reader, pooled HUVEC, TNFa stimulus (AID 454). inhibition, % at 5 µM. HUVEC TNFa-induced VCAM-1 surface immunofluorescence, plate reader; numbers were filed only for top-ranked candidate wells. hit rate 0.2% among 10,000;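 active = compound among top-ranked inhibitors of TNF-induced VCAM-1 adhesion protein staining, with the hit upheld by image or statistical review; inactive = the rest, including hits rejected on review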;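 note: 0% = TNFa with vehicle and 100% = cells without TNFa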
FPRL1 binder = human FPRL1 ligands by binding competition, primary screen, cell-based, FPR counter-screen, flow cytometry; N-formyl peptide receptor 2 (Homo sapiens), P25090; FPRL1-expressing cells, fluorescent ligand binding inhibition; inhibition, %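 (tested at 6.7 µM)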; hit rate 0.3% among 24,000;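 note: 0% = buffer alone and 100% = receptor blocker peptide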
Target sequence (P25090 whole entry, looked up): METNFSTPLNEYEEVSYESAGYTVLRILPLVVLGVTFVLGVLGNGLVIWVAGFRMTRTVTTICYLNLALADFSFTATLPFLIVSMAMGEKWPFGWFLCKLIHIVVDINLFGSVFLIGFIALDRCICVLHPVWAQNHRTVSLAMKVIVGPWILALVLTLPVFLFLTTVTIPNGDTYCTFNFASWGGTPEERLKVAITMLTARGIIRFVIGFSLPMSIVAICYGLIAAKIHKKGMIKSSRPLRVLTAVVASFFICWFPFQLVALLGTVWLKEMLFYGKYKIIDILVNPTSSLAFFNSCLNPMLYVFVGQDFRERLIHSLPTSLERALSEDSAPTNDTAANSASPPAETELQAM
VCAM-1 augmentation = enhancers of VCAM-1 display on endothelial cells, imaging, high-content imaging, pooled HUVEC, TNFa stimulus (AID 457); calls only; hit rate 0.2% among 10,000; Pooled HUVEC, TNFa-induced VCAM-1 immunofluorescence imaging; hits of this screen are not shown here;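 active = a top-ranked rise in VCAM-1 staining upheld on image or statistical review; inactive = the rest, including candidates rejected on review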;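 note: compounds tested at 5 µM in the well; cells exposed to compound for 24 hours before fixing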
VCAM-1 down imaging = inhibitors of TNFa-induced VCAM-1 surface display, imaging, high-content imaging, pooled HUVEC, TNFa stimulus (AID 456); inhibition, % at 5 µM; hits with a dose series show IC50 in µM; HUVEC TNFa-induced VCAM-1 surface expression, immunofluorescence imaging; numbers were filed only for top-ranked candidate wells; hit rate 0.2% among 10,000;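 active = top tenth filtered wells with inhibition above zero that passed visual or statistical confirmation; inactive = the rest, including hits rejected on review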;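 note: 0% = stimulated vehicle wells and 100% = unstimulated cells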
FPR binder = human FPR ligands by binding competition, primary screen, cell-based, FPRL1 counter-screen, flow cytometry; hit rate 0.74% among 24,000; fMet-Leu-Phe receptor (Homo sapiens), P21462; inhibition, %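 (tested at 6.7 µM)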; AID 440, 2006; FPR-expressing cells, fluorescent ligand binding;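 note: 0% = buffer wells and 100% = receptor blocker peptide wells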
Target sequence (P21462 whole entry, looked up): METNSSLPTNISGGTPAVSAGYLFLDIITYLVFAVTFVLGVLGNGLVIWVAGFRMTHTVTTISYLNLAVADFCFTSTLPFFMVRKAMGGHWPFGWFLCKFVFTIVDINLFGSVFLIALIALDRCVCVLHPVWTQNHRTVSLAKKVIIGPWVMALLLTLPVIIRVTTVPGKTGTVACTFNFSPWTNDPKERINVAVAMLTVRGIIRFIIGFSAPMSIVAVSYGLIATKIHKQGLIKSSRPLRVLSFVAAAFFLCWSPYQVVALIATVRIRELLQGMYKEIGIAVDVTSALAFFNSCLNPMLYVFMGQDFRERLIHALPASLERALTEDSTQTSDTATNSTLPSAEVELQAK
The depositor's hits bear a star; i = inactive; nt = not tested or not shown.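 Rule for the calls, unless noted: active = mean above 30%; inconclusive = self-fluorescent; inactive = the rest.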 The list is partial; rates above refer to the full screens.

SMILES	VCAM-1 down	FPRL1 binder	VCAM-1 augmentation	VCAM-1 down imaging	FPR binder
CCOC(=O)c1sc(NC(=O)CSc2nnc(-c3ccc(OC)cc3)n2CCOC)nc1C	i	-6	i	i	4
COc1ccccc1OCc1nc(C#N)c(N2CC(C)CC(C)C2)o1 (configuration not stated)	nt	1	nt	nt	6
CCCCC(=O)Nc1ccc(NC(=O)C2CC2)nc1	i	-3	i	i	2
Cc1cc(C)n(Cc2ccc(F)cc2)c(=O)c1C#N	nt	2	nt	nt	0
CCC(=O)Nc1cc2nn(-c3ccccc3)nc2cc1Cl	i	0	i	i	-1
Cc1oc(-c2ccccc2F)nc1CN1CCC(C(=O)NC2CC2)CC1	nt	0	nt	nt	-9
COc1ccccc1NC(=O)N(C1CCCC1)C1CCN(C(C)=O)CC1	i	2	i	i	-4
Cc1cccc(-c2nc(CN3CCCC(C(=O)NC4CCCCCC4)C3)c(C)o2)c1 (configuration not stated)	nt	0	nt	nt	2
Nc1nnnn1/N=C/c1ccccc1OCc1ccccc1	i	3	i	i	-7
COc1ccc(CCn2c(=N)c(C(=O)NCc3ccco3)cc3c(=O)n4ccccc4nc32)cc1	i	0	i	i	2
CC1(C)CC(=O)C2=C(C1)NC(=O)CC2c1ccccc1F (configuration not stated)	nt	-16	nt	nt	4
Cc1ccc(CCN2CC(C(=O)NCCCN(C)Cc3ccccc3)CC2=O)cc1 (configuration not stated)	nt	0	nt	nt	-5
CCCCC(=NCCO)C1=C(O)C(C(=O)OC)C(C)(C)CC1=O (configuration not stated)	i	-7	i	i	2
Cc1nnc2ccc(N3CCN(c4cccc(C(F)(F)F)c4)CC3)nn12	i	-3	i	i	1
Cc1cc(C)cc(N(CC(=O)NCC2CCCO2)S(=O)(=O)c2c(C)noc2C)c1 (configuration not stated)	nt	4	nt	nt	3
CCCN(CCC)C(=O)C1CCN(c2cc(C)nc3c(-c4ccc(OC)c(OC)c4)c(C)nn23)CC1	i	0	i	i	-8
NS(=O)(=O)c1cc2c(cc1Cl)NC(C1C[C@H]3C=C[C@@H]1C3)NS2(=O)=O (some centres not stated)	i	0	i	i	-9
CC(C)(C)SCCNC(=O)COc1ccc(Cl)cc1	i	5	i	i	3
CCOC(=O)c1sc(C(=O)OCC)c(OCCO)c1OCCO	nt	11	nt	nt	4
O=C(CN1CCN(S(=O)(=O)c2ccc(Br)cc2)CC1)Nc1ccc2c(c1)OCO2	nt	2	nt	nt	6
CCc1ccccc1NS(=O)(=O)c1ccc2[nH]cc(C(=O)NCc3ccco3)c(=O)c2c1	nt	-7	nt	nt	6
O=C(COC(=O)c1ccccc1Nc1ccccc1)NCc1ccco1	nt	0	nt	nt	-13
CCCSC1=C(C#N)C(c2ccccc2OCC)CC(=O)N1 (configuration not stated)	i	2	i	i	-2
O=C(O)C1CC1c1ccc(Br)cc1 (configuration not stated)	nt	0	nt	nt	-2
Cc1noc(/C=C/N(C)C)c1S(=O)(=O)N1CCCC(C(=O)Nc2ccc3c(c2)OCO3)C1 (configuration not stated)	nt	5	nt	nt	2
Cc1cc(NC(=O)C2CC(c3ccc(F)cc3)=NO2)no1 (configuration not stated)	nt	-10	nt	nt	-8
O=C1C(c2ccncc2)N(CCC2=CCCCC2)C(=O)CN1C1CCCCC1 (configuration not stated)	nt	-6	nt	nt	4
CC1CC(C)CN(CCCNC(=O)C2CCCN(c3nnc(N4CCCC4=O)s3)C2)C1 (configuration not stated)	nt	4	nt	nt	6
Cn1c(C(=O)OCC(=O)NCC2CCCO2)cc2sccc21 (configuration not stated)	i	-6	i	i	9
c1ccc(-c2noc(CSc3nc4ccccc4o3)n2)cc1	nt	-17	nt	nt	-7
CN1CCN(c2nc3c(c(=O)n(C)c(=O)n3C)n2Cc2cccc3ccccc23)CC1	i	-4	i	i	-2
CCOC(=O)c1ccccc1NC(=O)CCNC(=O)Cn1cnc2ccccc2c1=O	nt	-5	nt	nt	-6
CC(C)(C)C1=C[C@@H](CO)C[C@@H](CO)C1	i	2	i	i	4
COCCN1C(=O)c2ccccc2C(C(=O)NCCCN2CCCC2)C1c1c[nH]c2ccccc12 (configuration not stated)	nt	-6	nt	nt	7
O=C(c1ccco1)N1CCN(S(=O)(=O)c2ccc3c(c2)CCN3C(=O)C2CCC2)CC1	i	-4	i	i	-5
COc1ccccc1CNS(=O)(=O)c1ccc(NC(C)=O)cc1	i	-3	i	i	-3
COC(=O)c1nnn(CC(=O)Nc2cc(Cl)ccc2C)c1C(=O)OC	nt	-5	nt	nt	-2
CC1CCN(C(=O)Cn2c(=O)n(CCc3ccccc3)c(=O)c3ccccc32)CC1	nt	0	nt	nt	2
O=C(c1ccc(Cl)cc1)N1CCCOC1	i	0	i	i	-2
COc1cc(C2C(C(N)=O)=C(C)Nc3nc(CCCO)nn32)cc(OC)c1OC (configuration not stated)	nt	9	nt	nt	-1
COc1ccccc1N1CCN(C(=O)c2cccc(N3C(=O)NC4CC3(C)Oc3ccccc34)c2)CC1 (configuration not stated)	nt	3	nt	nt	7
COc1cccc(OCC(O)CN(CCO)Cc2ccccc2)c1 (configuration not stated)	nt	6	nt	nt	2
Cc1ccc(-c2cc(C(F)(F)F)n3nc(C(=O)N4CCCC4)cc3n2)cc1	i	-6	i	i	0
c1ccc(-c2ccccc2OCCn2cncn2)cc1	i	6	i	i	2
CC(=O)Nc1ccc(Cc2ccncc2)cc1	i	-2	i	i	-17
O=C1C2CCCN2C(c2ccccc2F)N1c1cccc(Cl)c1 (configuration not stated)	nt	-1	nt	nt	-3
O=C(NCCN1CCOCC1)c1cc(-c2ccco2)on1	nt	-1	nt	nt	-2
COc1ccc(OC)c(C2C(C(=O)Nc3cccnc3)=C(C)NC3=C2C(=O)CCC3)c1 (configuration not stated)	i	6	i	i	8
COc1ccc(-c2cc(N)n(CCC#N)n2)c(OC)c1	nt	2	nt	nt	0
CC(=O)c1cc(-c2ccccc2)n(CCC(=O)NCc2cccs2)c1C	nt	0	nt	nt	-5

Other entries:
SMILES	VCAM-1 down	FPRL1 binder	VCAM-1 augmentation	VCAM-1 down imaging	FPR binder
O=C(Cn1ncc2c(=O)oc3ccccc3c21)NCC1CCCO1 (configuration not stated)	i	1	i	i	-11
CCOC(=O)C1CCN(C(=O)COc2ccc(Cl)cc2Cl)CC1	i	1	i	i	-10
O=C(CCC1CCCCC1)Nc1c2c(nn1-c1ccc(F)cc1)CS(=O)C2 (configuration not stated)	nt	2	nt	nt	0
CCC(=O)/C=C1\Sc2ccc(OC)cc2N1CCO	i	14	i	i	13
O=C(O)c1ccc2c(c1)N(Cc1ccccc1)C(=O)c1ccccc1S2=O (configuration not stated)	nt	-3	nt	nt	0
Cc1noc(/C=C/N(C)C)c1S(=O)(=O)N1CCCC(C(=O)NCc2ccc(Cl)cc2)C1 (configuration not stated)	nt	-2	nt	nt	9
COc1ccc(CNC(=O)C(NS(=O)(=O)c2ccc3c(c2)CCCN3C(C)=O)C(C)C)cc1 (configuration not stated)	nt	-1	nt	nt	1
COc1ccccc1C(=O)Nc1ccc(S(=O)(=O)N2CCOCC2)cc1	i	-1	i	i	5
C=CCn1c(N)nc2ccccc21	nt	8	nt	nt	2
CC1(C)CC(=O)c2c(-c3cccnc3)n[nH]c2C1	nt	-1	nt	nt	4
CC(=O)NC(Cc1cc(C)ccc1C)C(=O)N1CCN(C(=O)Nc2ccc(C(C)=O)cc2)CC1 (configuration not stated)	i	7	i	i	35*
COCCNC(=O)CSc1nc2nc(C)cc(C)n2n1	nt	-5	nt	nt	3
COCCCNC(=O)CCc1nc2cccnc2n1Cc1ccccc1	nt	4	nt	nt	7
CN(CCNC(=O)c1cccc(N2CCCC2=O)c1)Cc1ccccc1	nt	0	nt	nt	-6
Cn1c(SCc2c(F)cccc2Cl)nnc1-c1cccs1	i	-2	i	i	-5
Cc1cc(NC(=O)C2CCCN(S(=O)(=O)c3cnc[nH]3)C2)ccc1Br (configuration not stated)	nt	0	nt	nt	-6
O=C(NC1CC1)c1ccc(COc2ccc(F)cc2)o1	nt	5	nt	nt	-3
CC(C)Sc1nnc(Cn2c(=O)sc3ccccc32)n1-c1ccccc1	nt	4	nt	nt	5
N#CC1=C(N)Oc2nc(-c3ccccc3)[nH]c2C1c1cccnc1 (configuration not stated)	nt	4	nt	nt	-5
CCC(Oc1ccccc1)C(=O)Nc1ccccc1OC (configuration not stated)	i	0	i	i	3
CCCn1nnc(NCc2ccc(OCc3cccs3)c(OC)c2)n1	i	-1	i	i	-2
O=C(Nc1ccc2snnc2c1)N1CCN(c2ccccc2)CC1	i	-11	i	i	2
Cc1cccc(OCc2nc(-c3nonc3N)no2)c1C	nt	-1	nt	nt	1
O=C(NCCN1C(=O)C2C3C=CC(C3)C2C1=O)N1CCCCC1 (configuration not stated)	i	4	i	i	-3
O=C(Nc1ccccn1)C1CCN(S(=O)(=O)c2cccc3nonc23)CC1	nt	-4	nt	nt	5
CCN(C1CCCCC1)S(=O)(=O)c1ccc(OC)c(C)c1	i	1	i	i	-2
Nc1c(C(=O)NCc2ccccc2)nnn1Cc1ccc(F)cc1	nt	14	nt	nt	3
COc1cc(C2=NOC(C(=O)N3CCOCC3)C2)cc(OC)c1OC (configuration not stated)	nt	5	nt	nt	1
COc1ccc(CCNC(=O)Cn2c(-c3nonc3N)nc3ccccc32)cc1OC	nt	-4	nt	nt	-3
Cc1cccc(N2CCN(C(=O)c3cc4ccccc4oc3=O)CC2)c1C	i	6	i	i	-2
CCOc1ccc(-c2cc(CCCC(=O)Nc3cccc(OC)c3)no2)cc1	nt	6	nt	nt	7
Cc1ccc2c(c1)NC(=O)C(CC(=O)NCCCN1CCN(C3CCCCC3)CC1)O2 (configuration not stated)	nt	2	nt	nt	1
COc1ccc(-n2[nH]c(C)cc2=O)cc1	nt	2	nt	nt	-3
O=C(C1CC1)N1CCc2cc(S(=O)(=O)NCCC3=CCCCC3)ccc21	nt	-2	nt	nt	7
CC1CCCCN1CCNC(=O)c1cc2c(=O)n(C)c3ccccc3c2n1C (configuration not stated)	nt	3	nt	nt	3
CN1CCc2c(sc3c2c(=O)n(-c2cccc(Cl)c2)c2nncn32)C1	i	-1	i	i	-2
CC1Cc2ccccc2N1C(=O)COC(=O)Cn1nnc(-c2ccccc2)n1 (configuration not stated)	i	1	i	i	2
COCCn1c(SCC(=O)Nc2nnc(C)s2)nnc1-c1ccncc1	i	-5	i	i	0
Cn1cccc1Cc1nnc(SCC(=O)Nc2ccccc2F)n1-c1ccc(F)cc1	i	-1	i	i	0
O=C(NCc1ccccc1)N1CCN(c2ccc(Cl)c(Cl)c2)CC1	nt	2	nt	nt	2

Reprinted from the part before: 4 entries, then new ones.
SMILES	VCAM-1 down	FPRL1 binder	VCAM-1 augmentation	VCAM-1 down imaging	FPR binder
CC1Cc2ccccc2N1C(=O)COC(=O)Cn1nnc(-c2ccccc2)n1 (configuration not stated)	i	1	i	i	2
COCCn1c(SCC(=O)Nc2nnc(C)s2)nnc1-c1ccncc1	i	-5	i	i	0
Cn1cccc1Cc1nnc(SCC(=O)Nc2ccccc2F)n1-c1ccc(F)cc1	i	-1	i	i	0
O=C(NCc1ccccc1)N1CCN(c2ccc(Cl)c(Cl)c2)CC1	nt	2	nt	nt	2
COc1ccc2cc(C#N)c(N3CCN(Cc4nnnn4CCC(C)C)CC3)nc2c1	i	-7	i	i	3
CCCOc1ccccc1C1CC(=O)Nc2cc3c(cc21)OCO3 (configuration not stated)	nt	-8	nt	nt	10
COCCNC(=O)C1CC(c2cccc(OC)c2)=NO1 (configuration not stated)	nt	-1	nt	nt	-2
CCOC(=O)N1CCN(C(=O)c2cccc(NC3=NC4CS(=O)(=O)CC4S3)c2)CC1 (configuration not stated)	nt	4	nt	nt	-2
COc1ccc(-c2nc(CS(=O)CC(=O)NCc3ccc(Cl)cc3)c(C)o2)cc1 (configuration not stated)	nt	-2	nt	nt	5
Cc1cc(C)cc(NC(=O)C2CCN(S(=O)(=O)c3c(C)n[nH]c3C)CC2)c1	nt	-6	nt	nt	1

Five compounds drawn at random from the list so far, as already listed:
SMILES	VCAM-1 down	FPRL1 binder	VCAM-1 augmentation	VCAM-1 down imaging	FPR binder
CN1CCN(c2nc3c(c(=O)n(C)c(=O)n3C)n2Cc2cccc3ccccc23)CC1	i	-4	i	i	-2
CC1CC(C)CN(CCCNC(=O)C2CCCN(c3nnc(N4CCCC4=O)s3)C2)C1 (configuration not stated)	nt	4	nt	nt	6
Nc1nnnn1/N=C/c1ccccc1OCc1ccccc1	i	3	i	i	-7
O=C(CN1CCN(S(=O)(=O)c2ccc(Br)cc2)CC1)Nc1ccc2c(c1)OCO2	nt	2	nt	nt	6
c1ccc(-c2noc(CSc3nc4ccccc4o3)n2)cc1	nt	-17	nt	nt	-7
